Tau fluor counter – counter-screen for tau fibril formation inhibitors; tau K18 P301L Alexa594 fluorescence, heparin fibrillization; Potency, µM (highest dose often 57.7 µM), for inactives: at the top dose activity change, negative = decrease; hit rate 0.93% among 280,000; AID 1463; further: nearly all actives have a fitted effect of over 55% in size
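Human tau K18 P301L (15 uM unlabeled, 0.24 uM Alexa 594-labeled) in 100 mM sodium acetate pH 7 with 20 uM heparin, 6 hr at 37 C. ThT 30 uM added, 1 hr ambient; Alexa 594 FP and total fluorescence read at 555/632 nm.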
ALDH1A1 inh – blocks purified human ALDH1A1 activity; P00352; Purified ALDH1A1, NADH fluorescence, propionaldehyde substrate; Potency, µM (top dose mostly 75.3 µM), without a hit: at the top dose activity, negative = inhibition, actives largely listed as inhibitors; hit rate 7.3% among 220,000; AID 1030; active means well fitted inhibition curve with a large enough effect, not every such curve was filed as active; inconclusive means small, poorly fitted or top-dose-only effect, or another doubt; inactive means no such curve, though single readings can be large or run the other way;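 further: plate controls were no enzyme wells and a reference inhibitor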
Tau fibril FP – tau fibrillization inhibition (FP). AID 1468. K18 P301L tau heparin fibrillization, Alexa594 FP, 6 h. Potency, µM (top dose mostly 57.7 µM), inactives show at the top dose activity, negative = inhibition, usual class: inhibitors. hit rate 0.39% among 280,000. P10636; further: nearly all actives have a fitted effect of over 55% in size
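Human K18 P301L fragment (15 uM unlabeled plus 0.24 uM Alexa 594-labeled) in 100 mM sodium acetate pH 7 with compound, aggregation induced by 20 uM heparin for 6 hr at 37 C. ThT (30 uM) added for 1 hr, then Alexa 594 FP read.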
aGal spleen mod – inhibitors or activators of human alpha-galactosidase in spleen homogenate. P06280. human spleen homogenate, 4MU-alpha-Gal fluorescence, 40 min. Potency, µM (series often up to 80 µM), inactives show at the highest dose activity change, negative = inhibition, actives largely listed as inhibitors. hit rate 0.008% among 240,000. AID 2107;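 further: 0% = enzyme with vehicle and -100% = no enzyme basal signal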
Target sequence (P06280 32-429 limits assumed): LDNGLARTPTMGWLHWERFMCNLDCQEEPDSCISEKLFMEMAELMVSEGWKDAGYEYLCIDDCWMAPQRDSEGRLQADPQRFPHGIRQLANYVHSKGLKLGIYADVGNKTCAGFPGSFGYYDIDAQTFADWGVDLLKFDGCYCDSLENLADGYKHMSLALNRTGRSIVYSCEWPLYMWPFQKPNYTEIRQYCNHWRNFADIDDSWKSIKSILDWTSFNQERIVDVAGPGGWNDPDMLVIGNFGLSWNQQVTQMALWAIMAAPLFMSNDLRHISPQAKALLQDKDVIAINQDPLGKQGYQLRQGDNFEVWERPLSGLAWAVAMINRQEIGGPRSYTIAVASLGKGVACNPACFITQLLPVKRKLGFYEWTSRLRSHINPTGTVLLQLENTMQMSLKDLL
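Human spleen homogenate (1 ug) as enzyme source, 4-methylumbelliferyl-alpha-D-galactopyranoside 1 mM final, citrate/phosphate pH 5.0 with 0.01% Tween-20. Compounds 40 min at 37C, NaOH/glycine stop; fluorescence Ex 365/Em 440, Hill-fit AC50.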
Starred values were filed as active, the others as inactive; ? = inconclusive; / = no result given; & = joins results of further samples; [ ] = another dose, or the depositor's remark. Unless noted, the call rests on the fitted dose curve; in most records, active means well fitted curve in the direction sought with a large enough effect; inconclusive means small, poorly fitted or top-dose-only effect, or another doubt; inactive means no such curve, though single readings can be large; an effect the other way counts as inactive or inconclusive. Unless noted, on the % scale 0 is the no-effect control and ±100 the full control effect; potency means the concentration at half of the fitted maximal effect. The list is partial; count on the stated rates, not on these rows.

molecule,aGal spleen mod,Tau fluor counter,ALDH1A1 inh,Tau fibril FP
COc1ccc2c(c1OC)C(=O)O[C@H]2[C@H]1c2cc3c(cc2CCN1C)OCO3,-6%[29.1 µM],/,-3%[20.9 µM],/
CCSC(=O)N1CCCCCC1,-2%,/,3%,/
CN(C)C1C(=O)C(C(N)=O)=C(O)[C@@]2(O)C(=O)C3=C(O)c4c(O)cccc4[C@@](C)(O)C3CC12 (some centres not stated),-1%,-25%,-9%,-5%
COC(=O)C1=CCCN(C)C1,20%,-6%&-8%&-8%&7%,5%,-10%&-2%&-16%&-7%
CC1OC(O[C@H]2C[C@@H](O)[C@]3(CO)[C@@H]4C(CC[C@]3(O)C2)[C@@]2(O)CC[C@H](C3=CC(=O)OC3)[C@@]2(C)C[C@H]4O)C(O)C(O)C1O (some centres not stated),3%,0%,0%,2%
CC1OC(OC2C(O)CC(OC3C(O)CC(OC4CCC5(C)C(CCC6C5CCC5(C)C(C7=CC(=O)OC7)CCC65O)C4)OC3C)OC2C)CC(O)C1O (configuration not stated),6%,4%,3%,11%
O=C(/C=C/c1ccccc1)NCCc1cnc[nH]1,-4%,8%,-33%,4%
C[C@]12CC[C@H](O)CC1=CCC1C2CC[C@]2(C)C(=O)CC[C@@H]12 (some centres not stated),6%&0%&-2%,-1%&-18%&-13%,-3%&13%&-5%,2%&1%&-3%
Cc1cc(Cl)ccc1OC(C)C(=O)O (configuration not stated),-8%,5%,9%,1%
O=C(c1ccc(F)cc1)N1CCC(N2CCCCCC2)CC1,2%,-9%,?,-9%

8 of the compounds above, with values under each structure.
Below each SMILES – aGal spleen mod, Tau fluor counter, ALDH1A1 inh, Tau fibril FP
COc1ccc2c(c1OC)C(=O)O[C@H]2[C@H]1c2cc3c(cc2CCN1C)OCO3
    -6%[29.1 µM], /, -3%[20.9 µM], /
CCSC(=O)N1CCCCCC1
    -2%, /, 3%, /
CN(C)C1C(=O)C(C(N)=O)=C(O)[C@@]2(O)C(=O)C3=C(O)c4c(O)cccc4[C@@](C)(O)C3CC12 (some centres not stated)
    -1%, -25%, -9%, -5%
COC(=O)C1=CCCN(C)C1
    20%, -6%&-8%&-8%&7%, 5%, -10%&-2%&-16%&-7%
CC1OC(O[C@H]2C[C@@H](O)[C@]3(CO)[C@@H]4C(CC[C@]3(O)C2)[C@@]2(O)CC[C@H](C3=CC(=O)OC3)[C@@]2(C)C[C@H]4O)C(O)C(O)C1O (some centres not stated)
    3%, 0%, 0%, 2%
CC1OC(OC2C(O)CC(OC3C(O)CC(OC4CCC5(C)C(CCC6C5CCC5(C)C(C7=CC(=O)OC7)CCC65O)C4)OC3C)OC2C)CC(O)C1O (configuration not stated)
    6%, 4%, 3%, 11%
O=C(/C=C/c1ccccc1)NCCc1cnc[nH]1
    -4%, 8%, -33%, 4%
C[C@]12CC[C@H](O)CC1=CCC1C2CC[C@]2(C)C(=O)CC[C@@H]12 (some centres not stated)
    6%&0%&-2%, -1%&-18%&-13%, -3%&13%&-5%, 2%&1%&-3%
